Beta cell apopt: inhibitors of cytokine-induced beta cell apoptosis, primary screen, luminescence. INS-1E cytokine-induced death, ATP luminescence, 48 h; percent of positive-control rescue, neutral wells zero. protection from apoptosis, % (concentration not given with the values). hit rate 0.8% among 300,000. AID 435005, 2010;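 active = all replicates at 75% or more, or half of them and the mean; inconclusive = half reach 75% but not the mean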;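 note: 0% = cytokine-treated negative control wells and 100% = positive control rescue; higher means more ATP so stronger rescue from cytokine killing; wells of about 40 µL received 100 nL stock; the first replicate is given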
MLL AF4-AF9 inh: inhibitors of AF4 peptide binding to AF9, primary screen, biochemical, AlphaScreen, biotin-AF4 peptide, FLAG-AF9, single point | Protein AF-9 (Homo sapiens), P42568 | inhibition, % at 10 µM | hit rate 0.47% among 350,000 | AID 651704, 2012;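 active = every replicate reaching a set inhibition limit, whatever the replicate mean, cut at about 25% in these data; inconclusive = mean inhibition reaches that limit but some replicates miss it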;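 note: 0% = plate neutral control median and 100% = total signal loss; the record names both 10 and 1 µM as test concentration; the first replicate is given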
Target sequence (P42568 whole entry, looked up): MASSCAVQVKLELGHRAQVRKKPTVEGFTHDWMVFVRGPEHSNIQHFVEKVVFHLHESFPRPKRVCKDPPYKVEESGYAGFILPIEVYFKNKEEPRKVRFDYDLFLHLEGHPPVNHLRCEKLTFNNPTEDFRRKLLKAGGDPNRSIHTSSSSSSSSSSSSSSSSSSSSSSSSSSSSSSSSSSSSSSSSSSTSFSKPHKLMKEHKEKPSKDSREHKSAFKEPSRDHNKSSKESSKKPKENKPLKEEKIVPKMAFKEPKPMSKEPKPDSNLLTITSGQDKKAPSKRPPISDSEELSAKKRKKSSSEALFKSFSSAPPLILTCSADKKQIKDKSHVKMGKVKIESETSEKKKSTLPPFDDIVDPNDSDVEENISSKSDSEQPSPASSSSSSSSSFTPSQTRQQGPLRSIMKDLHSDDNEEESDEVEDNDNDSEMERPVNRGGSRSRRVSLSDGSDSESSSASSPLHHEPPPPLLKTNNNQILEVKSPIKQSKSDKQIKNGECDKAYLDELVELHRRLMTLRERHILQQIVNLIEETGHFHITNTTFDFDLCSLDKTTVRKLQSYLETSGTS
Calb FLC: C. albicans growth inhibition with fluconazole, primary screen, CaCi-2 strain, Alamar Blue fluorescence; C. albicans CaCi-2 (fluconazole-resistant clinical isolate) + fluconazole, 48 h; growth inhibition, % (no concentration beside the values); hit rate 0.57% among 300,000; AID 1979, 2009;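 active = most replicates above 75%; inconclusive = exactly half above 75%; inactive = most below 75%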;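 note: all wells also contain fluconazole at 8 µg/ml as a sub-toxic cotreatment; 0% = median of DMSO wells and 100% = median of geldanamycin control wells; wells of about 8 µL received 7.5 nL stock; the first replicate is given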
T cruzi inh: inhibitors of intracellular T. cruzi growth, primary screen, luminescence, NIH3T3 host cells. inhibition, % (no concentration beside the values). T. cruzi beta-gal in NIH3T3, 90 h. hit rate 1.4% among 300,000;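 active = mean inhibition across valid replicates above about 55%, limit read from the data; inconclusive = mean below that limit but half or more replicates reach it; inactive = mean below it, under half of replicates reach it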;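 note: signal also drops with host cell toxicity which is not excluded here; 0% = plate median of DMSO wells and 100% = zero luminescence signal; higher percent means less beta-gal luminescence so fewer parasites; stock transfer was 50 nL into about 50 µL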
ALR inh: inhibitors of human ALR sulfhydryl oxidase, primary screen, biochemical, H2O2 detection, HRP-luminol luminescence, single point | FAD-linked sulfhydryl oxidase ALR (Homo sapiens), P55789 | purified ALR, DTT oxidation | inhibition, % (no concentration beside the values) | hit rate 3.8% among 290,000 | AID 485317, 2010;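 active = mean and each replicate at 75% or more; inconclusive = only one of the two met; inactive = neither met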;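 note: stock transfer was 7.5 nL into about 7.5 µL; 0% = neutral wells and 100% = wells with inactivated enzyme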
Target sequence (P55789 whole entry, looked up): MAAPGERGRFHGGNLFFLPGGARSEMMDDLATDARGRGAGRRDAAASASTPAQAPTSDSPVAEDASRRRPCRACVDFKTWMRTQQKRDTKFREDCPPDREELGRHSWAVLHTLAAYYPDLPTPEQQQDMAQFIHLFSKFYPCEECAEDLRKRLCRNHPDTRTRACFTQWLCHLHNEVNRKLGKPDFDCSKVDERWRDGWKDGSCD
FGF22 binding: binders of human FGF22 protein, primary screen, FGF22 synaptogenesis inhibitor project, biophysical, thermal shift, single point; Fibroblast growth factor 22 (Homo sapiens), Q9HCT0; recombinant FGF22 thermal shift, SYPRO orange fluorescence; percent of sucrose octasulfate shift, DMSO zero; calls only at 9.99 µM; hit rate 1.5% among 340,000;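 active = melting point raised past a set limit in the mean and every replicate; inconclusive = no clear call; three in four hits are not shown here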
Target sequence (Q9HCT0 whole entry, looked up): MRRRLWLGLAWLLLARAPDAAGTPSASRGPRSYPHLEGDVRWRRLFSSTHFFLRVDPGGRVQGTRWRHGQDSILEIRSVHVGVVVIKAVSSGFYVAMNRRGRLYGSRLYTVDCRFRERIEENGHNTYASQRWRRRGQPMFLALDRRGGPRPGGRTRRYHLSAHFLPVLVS
Ecoli rRNA inh: reduced GFP signal of wild-type E. coli, primary screen, bacterial rRNA inhibitor project, GFP/RFP fluorescence, OD600, single point. E. coli WT GFP vs humanized-ribosome RFP mutants, 24 h; hits give low values; DMSO median 0, no signal -100. GFP signal change (wild-type ribosome), % (test concentration not listed). hit rate 1.6% among 350,000. AID 720706, 2013;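 active = significant combined selectivity score with lowered wild-type GFP, culture density cut under 30%, mutant RFP and density less affected; inactive = any of these conditions unmet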; note: one replicate is shown; some compounds called inactive have numbers as strong as hits
RanGTP-Impb inh: inhibitors of RanGTP-importin-beta interaction, primary screen, biochemical, FRET, CFP-Ran, YFP-importin-beta, homogeneous; AID 2216, 2009; hit rate 1.1% among 300,000; inhibition, % (concentration not given with the values); cell-free CFP-Ran/YFP-importin-beta FRET ratio; Ran GTPase (GTP-bound) - importin-beta complex;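 active = most replicates above 15%; inconclusive = exactly half above 15%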;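 note: 0% = DMSO wells and 100% = Ran loaded with GDP instead of GTP; wells of about 40 µL received 100 nL stock; the first replicate is given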
Ecoli rRNA inh OD600: further read-out of Ecoli rRNA inh, marked with its call; OD600 change, %; measured here: OD600 growth;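 optical density of the mix in the first replicate; 0 = DMSO median and -100 = no signal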
Ecoli rRNA inh RFP: second read-out of Ecoli rRNA inh, no call of its own (marks repeat the call); RFP signal change, %; measured here: RFP humanized mutant strains;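 first replicate; 0 = DMSO median and -100 = no signal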
Numbers without * were called inactive; i = inactive; ? = inconclusive; / = no result given.

SMILES | Beta cell apopt | MLL AF4-AF9 inh | Calb FLC | T cruzi inh | ALR inh | FGF22 binding | Ecoli rRNA inh | Ecoli rRNA inh OD600 | Ecoli rRNA inh RFP | RanGTP-Impb inh
C=CCNC(=O)C1CCN(c2ccc(S(=O)(=O)N3CCOCC3)cc2[N+](=O)[O-])CC1 | -5 | 2.9 | -8 | 10 | -2 | / | / | / | / | -1.7
O=C(CCl)Nc1cccn2ncnc12 | -2 | / | -5 | -3 | 31 | / | / | / | / | 6.0
Cn1c(C(=O)NC2CCCCCC2)cc2c(=O)n(C)c3ccccc3c21 | 8 | -1.7 | 16 | 10 | -1 | i | -3 | -8 | -0.6 | -0.9
CN(Cc1ccncn1)C(=O)CC1C(=O)NCCN1Cc1cccc(Oc2ccccc2)c1 (centres undefined) | 3 | -2.8 | -5 | 10 | -8 | i | -3 | -7 | 2.8 | -1.1
Cc1cc(Nc2c(C)n(C)n(-c3ccccc3)c2=O)n2c(nc3cc(F)c(F)cc32)c1C#N | 5 | / | 8 | -16 | -8 | / | / | / | / | 96*
CC(C)CNC(CC(=O)Nc1cccc([N+](=O)[O-])c1)C(=O)O (centres undefined) | -7 | / | -5 | -11 | / | / | / | / | / | -0.9
Nc1nccc(/C=C/c2ccc(Cl)cc2)n1 | 0 | 3.8 | -5 | -9 | -15 | i | 5 | 7 | -1.6 | -0.4
NC(=O)c1ccc(NC(=O)c2cnc3ccccc3n2)cc1 | 9 | -2.3 | -3 | / | -15 | i | 6 | 6 | -1.0 | -2.7
O=C(NCCc1ccccc1)/C(=C\c1ccc([N+](=O)[O-])cc1)NC(=O)c1ccccc1 | 10 | / | 9 | 0 | / | / | / | / | / | -1.8
Cc1onc(-c2ccccc2)c1C(=O)OCC(=O)N1CCN(c2ccccc2)CC1 | 1 | 1.4 | -10 | 3 | 12 | i | -3 | -8 | 5.2 | ?
O=C1NCC(c2ccccc2)C1C(=O)N/N=C\c1ccc(-c2ccc(Cl)c(Cl)c2)o1 (centres undefined) | -5 | / | -1 | 8 | -5 | / | / | / | / | 0.2
CC1(C)SC(=S)N(NC(=O)Nc2ccccc2)C1N(O)C(=O)Nc1ccccc1 (centres undefined) | 0 | / | -4 | -2 | 64 | / | / | / | / | 4.1
COc1ccccc1CN1CCN(C(c2ccccc2)c2ccccc2)CC1 | 17 | 15 | -32 | 36 | -13 | i | -24 | -47 | 8.4 | 1.9
Cc1nnc(NC(=O)C(C)Sc2nnc(-c3ccco3)n2C)s1 (centres undefined) | -8 | -2.7 | -3 | -9 | 0 | i | 4 | 9 | -0.6 | 4.0
Cc1cccc(C)c1NC(=O)C1CCCNC1 (centres undefined) | -6 | / | 0 | 2 | -21 | / | / | / | / | 4.0
O=C(COC(=O)c1c2c(nc3ccccc13)CCCCC2)c1ccc(Cl)s1 | 6 | / | -4 | 15 | / | / | / | / | / | -0.8
CC(C)OCCCn1c(=O)c2ccccc2n2c(CCC(=O)NC3CCN(Cc4ccccc4)CC3)nnc12 | 2 | -0.6 | -19 | 30 | 1 | i | 3 | 11 | 0.3 | 4.5
Cc1cccc(C(C#N)c2ccc(Cl)nn2)c1 (centres undefined) | 3 | -0.6 | 3 | -9 | 25 | i | 5 | 3 | -5.6 | -5.0
Cc1cc(C)n2nc(SCC(=O)N3CC(C)CC(C)C3)nc2n1 (centres undefined) | -4 | 1.6 | / | / | -1 | i | 9 | 3 | 0.6 | /
CN(C(=O)c1ccncc1)c1nnc(-c2cnccn2)s1 | 5 | / | 6 | 4 | -25 | / | / | / | / | 1.2
Cc1c(NC(=O)Nc2cccc(C#N)c2)c(=O)n(-c2ccccc2)n1C | -7 | -1.7 | -5 | -12 | 0 | i | 5 | 14 | -2.0 | 4.3
CC(=O)NCCNC(=O)CNC(=O)c1ccc(Cl)cc1 | -10 | / | -6 | -6 | / | / | / | / | / | 4.4
CC1(C)CN=C(NC2CCCCC2)S1 | -8 | / | -6 | -12 | -4 | / | / | / | / | -0.9
O=C(CSC1=NS(=O)(=O)c2ccccc2N1)Nc1ccc(F)cc1 | -5 | 0.8 | -3 | -2 | 97* | i | 5 | -3 | 0.2 | -4.1
COc1cccc(-c2cc(C(=O)Nc3ccc(OC)c(OC)c3)no2)c1 | 0 | / | 2 | 10 | -22 | / | / | / | / | ?
(cont.)
SMILES | Beta cell apopt | MLL AF4-AF9 inh | Calb FLC | T cruzi inh | ALR inh | FGF22 binding | Ecoli rRNA inh | Ecoli rRNA inh OD600 | Ecoli rRNA inh RFP | RanGTP-Impb inh
CONc1nc2nonc2nc1NOC | -1 | -2.5 | -14 | -7 | -10 | i | 2 | -1 | -3.2 | 1.4
Cc1ccsc1CN(C)CC(=O)Nc1ccc([N+](=O)[O-])cc1Cl | 2 | 2.3 | -3 | 17 | -13 | i | -5 | 1 | -1.9 | -5.7
CC1C(=O)N(c2ccc(S(=O)(=O)N(C)C)cc2)C1(/C=C/c1ccccc1)C(=O)NC1CCCC1 (centres undefined) | 2 | / | 39 | 28 | 0 | / | / | / | / | 0.4
COc1ccc(C(=O)Nc2ccc(NC(=O)c3cccs3)cc2)cc1[N+](=O)[O-] | -9 | 2.0 | 6 | -9 | -4 | i | 9 | 10 | 4.0 | -1.0
CCS(=O)(=O)c1nc(S(=O)(=O)c2ccc(C)cc2)c(NCc2ccccn2)s1 | -7 | 5.1 | 2 | 12 | -1 | i | -7 | -13 | -8.5 | 16*
COc1ccc(/C=N/NC(=O)c2ccc3c(c2)NC(=O)C(C)(C)O3)cc1OC | 3 | -1.8 | 3 | 3 | 2 | i | -11 | -4 | 3.5 | -3.3
O=C1CC(c2cccnc2)c2cc3c(cc2N1)OCCO3 (centres undefined) | 2 | 4.3 | 1 | -6 | / | i | 7 | 6 | -2.0 | 2.1
COc1ccccc1NC(=O)CCSc1nnc(-c2ccncc2)o1 | -5 | 0.3 | -9 | -4 | / | i | 3 | -6 | 2.9 | 0.7
CCn1c(-c2cc(-c3ccccc3)sc2N)n[nH]c1=S | / | 0.7 | 19 | 19 | 99* | i | -30 | -34 | -3.2 | -3.4
CC(=O)Oc1ccc(C2C3=C(CC(C)(C)CC3=O)Nc3cc4c(cc32)OCCO4)cc1 (centres undefined) | -9 | -7.7 | 6 | -3 | 15 | i | 4 | -1 | -3.9 | 0.2
CC(=O)c1sc(NC(=O)c2cccs2)nc1C | 4 | -1.3 | 5 | -6 | -7 | i | 8 | 6 | -2.5 | 3.5
CCN(CC)S(=O)(=O)c1ccc(N2CCCCC2)c(NC(=O)/C(C#N)=C/c2ccc(OC)cc2)c1 | -9 | / | -3 | 15 | -5 | / | / | / | / | 0.1
CCOc1ccc(Nc2nc(Cc3nnc(SCC(=O)NC4CCCC4)n3C)cs2)cc1 | -4 | 3.9 | 2 | 3 | 51 | i | -1 | -9 | -1.6 | -1.1
Cc1ccc(-c2nc3ccccc3c(=O)n2Cc2ccccc2)cc1 | 3 | / | 9 | 31 | 1 | / | / | / | / | 1.6
Cc1ccc(C(=O)Nc2nnc(S(=O)(=O)Nc3ccccc3C)s2)cc1C | -4 | 1.0 | 1 | 1 | 9 | i | / | / | / | -5.3
CCC(C)NC(=O)CSc1ncnc2sccc12 (centres undefined) | -4 | -0.5 | -2 | -7 | 7 | i | 9 | 1 | -2.5 | -3.6
CC(C)=NNc1nc(-c2ccccc2)c(C)s1 | 3 | -0.4 | 8 | 11 | -13 | i | / | / | / | 1.9
COc1ccc(OC)c(CNC(=O)C2CCC(=O)N2C(C)C)c1 (centres undefined) | -2 | 1.1 | -5 | -3 | -1 | i | 10 | 10 | 0.2 | ?
COc1ccc(/C=N/c2oc(-c3ccccc3)cc2C#N)cc1 | -2 | / | 5 | -1 | 97* | / | / | / | / | -3.4
Cc1ccc(S(=O)(=O)c2nnn3c2nc(N2CCOCC2)c2ccccc23)c(C)c1 | 3 | ? | -6 | 25 | -14 | i | 6 | 8 | -0.9 | 1.6
CCc1ccc(C(=O)Cn2ncc(Cl)c(Cl)c2=O)cc1 | -11 | / | 21 | 60* | -14 | / | / | / | / | 1.4
O=c1cnn([C@@H]2O[C@H](CO)[C@@H](O)[C@H]2O)c(=O)[nH]1 | -14 | / | -1 | -2 | -9 | / | / | / | / | 4.1
CN(NC(=S)Nc1ccc(OC(F)F)cc1)C(=S)Nc1ccc(OC(F)F)cc1 | 5 | 3.9 | -3 | 22 | 6 | i | -43 | -70 | -4.5 | -2.5
O=C(NCCCn1ccnc1)C(=O)NCC1OCCCN1S(=O)(=O)c1ccc(Cl)cc1 (centres undefined) | 0 | / | -1 | -3 | -29 | / | / | / | / | 0.4
c1ccc(CN2CCC(N3CCN(Cc4ccc5c(c4)OCO5)CC3)CC2)cc1 | 2 | 2.1 | 4 | 30 | -20 | i | 10 | -2 | -1.9 | -3.3
Other structures follow.
SMILES | Beta cell apopt | MLL AF4-AF9 inh | Calb FLC | T cruzi inh | ALR inh | FGF22 binding | Ecoli rRNA inh | Ecoli rRNA inh OD600 | Ecoli rRNA inh RFP | RanGTP-Impb inh
Cc1ccc(SCC(=O)N(Cc2nc(-c3ccccc3)no2)C(C)C)cc1 | -14 | / | -15 | 24 | -4 | / | / | / | / | 5.2
COc1ccc(/C=C(\C)c2nc(C)c(-c3ccccc3)c(=O)[nH]2)cc1 | -1 | 4.5 | -5 | 6 | / | i | 1 | -4 | -2.2 | -3.0
CCSc1ccccc1C(=O)N=C1NC(=O)CC2C(=O)NCCN12 (centres undefined) | -4 | -0.5 | 2 | -9 | -13 | i | 14 | 15 | -2.0 | 0.4
Cc1ccc(N(C)S(=O)(=O)c2ccc(-c3cnc(C4CC4)o3)cc2)cc1 | 25 | 0.6 | 26 | 11 | 1 | i | -3 | -43 | -5.6 | 0.3
CCC(=O)Nc1cc(NC(=O)CSc2nnc(C(C)C)n2CC)ccc1C | 1 | / | -1 | 4 | 13 | / | / | / | / | 0.5
Cc1cc(Cl)ccc1NC(=O)Cn1cncn1 | -5 | -0.9 | -10 | -17 | -18 | i | 17 | 19 | 1.9 | 0.3
CC1CCc2c(sc(NC(=S)NC(=O)c3ccccc3)c2C#N)C1 (centres undefined) | 2 | -1.9 | 8 | -4 | 4 | i | 6 | 6 | 1.1 | 5.9
COc1cc(-c2csc(N3CCOCC3)n2)cc(OC)c1OC | -2 | / | -12 | -3 | ? | / | / | / | / | -3.0

Screening data: PubChem, Broad Institute

The list is partial; rates above refer to the full screens.
